Assay outcomes from PubChem BioAssay.
ClpP mod = qHTS Assay for Activators of ClpP | ATP-dependent Clp protease proteolytic subunit (Bacillus subtilis (strain 168)), P80244 | purified B. subtilis ClpP, FRET peptide cleavage, 20 min | Potency, µM (series often up to 57.5 µM), without a hit: at the highest dose activity change, negative = active | 1.9% of 340,000 active | AID 651965, 2013; active = well fitted falling curve with a large enough effect; inconclusive = small, poorly fitted or top-dose-only effect; inactive = no such curve, though single readings can be large or run the other way; note: potency is the fitted concentration of half-maximal effect; the source files actives as falling curves though it sought activators and does not explain the sign; nearly all actives have a fitted effect of over 65% in size; many hits overshoot -100%
Target sequence (P80244 whole entry, looked up): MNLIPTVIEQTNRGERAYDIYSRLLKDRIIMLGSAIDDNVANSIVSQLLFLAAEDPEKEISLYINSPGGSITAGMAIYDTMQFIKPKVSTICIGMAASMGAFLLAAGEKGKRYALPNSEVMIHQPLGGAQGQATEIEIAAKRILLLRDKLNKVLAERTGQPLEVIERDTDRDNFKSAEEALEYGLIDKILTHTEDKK
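ClpP 10 microg/mL final, pH 8 Tris/KCl buffer with BSA, glycerol, Tween-20; compound pinned in; FRET-FV substrate; RT 20 min; Ex320/Em430; ΔFRET vs ADEP 5.8 microM, DMSO, no enzyme.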
PINK1 expr mod = A Quantitative High throughput Screen to Identify Chemical Modulators of PINK1 Expression; PINK1 immunofluorescence, high-content cytometry, 24 h; Potency, µM (highest dose often 76.6 µM), without a hit: at the top dose activation (PINK1 increase), actives largely listed as activators; 0.2% of 410,000 active; AID 624263, 2012; active = well fitted activation curve with a large enough effect; inconclusive = small, poorly fitted or top-dose-only effect; inactive = flat fitted curve, though single readings scatter; cell line not stated here;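 note: potency is the fitted concentration of half-maximal effect; % of control where 0% means no effect; nearly all actives have a fitted effect of over 65% in size; a mitochondrial uncoupler was the plate control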
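PINK1 protein, normally rapidly degraded, was detected by immunofluorescence after 24 hour compound treatment of a stable cell line. Titration data (5 concentrations) came from laser-scanning cytometry, with CCCP-treated wells as controls.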
gsp antagonist = qHTS for Antagonists of gsp, the Etiologic Mutation Responsible for Fibrous Dysplasia/McCune-Albright Syndrome: qHTS. gsp-mutant cells, cAMP HTRF, 30 min; control for the full effect not named in the record. Potency, µM (doses to about 76.9 µM), without a hit: at the top dose activity change, negative = inhibition, actives largely listed as inhibitors. 0.4% of 340,000 active; active = falling curve of any shape with a large fitted effect; inconclusive = falling curve, mostly with a smaller effect; inactive = flat or rising curve; cell line not stated here;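 note: intracellular cAMP measured with PDE inhibitor Ro 20-1724 present during compound exposure; potency is the fitted concentration of half-maximal effect; % is set by controls: 0 for no effect and ±100 for the full control effect; nearly all actives have a fitted effect of over 65% in size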
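Cells in G418 medium, seeded 16-24 h, 37C; buffer exchange to DPBS + 1 mM CaCl2, 0.5 mM MgCl2, 0.05% BSA; cpds in DMSO + […] (300 uM stock), 30 min 37C; HTRF cAMP detection.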
gsp agonist = qHTS for Agonist of gsp, the Etiologic Mutation Responsible for Fibrous Dysplasia/McCune-Albright Syndrome: qHTS; gsp mutant cells, cAMP HTRF, 30 min; control for the full effect not named in the record; Potency, µM (series often up to 76.9 µM), for inactives: at the highest dose activation (cAMP increase), usual class: activators; 0.13% of 340,000 active; AID 624287, 2012; active = well fitted activation curve with a large enough effect; inconclusive = small, poorly fitted or top-dose-only effect, or another doubt; inactive = no such curve, though single readings can be large or run the other way; cell line not stated here;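 note: phosphodiesterase inhibitor Ro 20-1724 added with compounds to block cAMP breakdown; potency is the fitted concentration of half-maximal effect; nearly all actives have a fitted effect of over 60% in size; about a fifth of the inactives were tested at one dose only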
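Cells in DMEM/10% FBS with G418 were pretreated with compounds in DMSO plus […] (300 uM stock) for 30 min at 37C. cAMP was measured by HTRF (cAMP-d2 plus anti-cAMP antibody-K) after 30 min at room temperature.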
D2 ag = Beta-Arrestin HTS for Positive Allosteric Modulators of the Human D2 Dopamine Receptor: Agonists; DiscoveRx PathHunter D2 beta-arrestin, luminescence, 90 min; 100% = 57 uM dopamine signal; activation, % (concentration not given with the values); D(2) dopamine receptor (Homo sapiens), P14416; AID 624465, 2012; 0.084% of 360,000 active; in the data active = activation above about 40%; inconclusive = about 15% to 40%; inactive = below about 15%; note: compound concentration not given in the record; the text of the record calls up to 30% inactive
Target sequence (P14416 whole entry, looked up): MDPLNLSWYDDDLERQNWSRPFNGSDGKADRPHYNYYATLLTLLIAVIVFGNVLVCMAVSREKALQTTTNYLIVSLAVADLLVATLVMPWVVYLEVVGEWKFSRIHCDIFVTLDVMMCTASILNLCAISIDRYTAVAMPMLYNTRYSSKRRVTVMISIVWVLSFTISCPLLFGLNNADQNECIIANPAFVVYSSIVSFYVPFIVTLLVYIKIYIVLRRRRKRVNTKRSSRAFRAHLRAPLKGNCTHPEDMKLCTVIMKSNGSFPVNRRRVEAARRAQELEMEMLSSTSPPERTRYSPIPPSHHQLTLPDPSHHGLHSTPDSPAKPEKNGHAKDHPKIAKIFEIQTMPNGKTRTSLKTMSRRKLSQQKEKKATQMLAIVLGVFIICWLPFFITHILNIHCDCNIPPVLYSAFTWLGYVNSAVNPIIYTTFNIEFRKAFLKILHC
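DiscoveRx PathHunter D2 beta-arrestin cells (2,100/well) attached overnight, then compound-stimulated 90 min at 37 C in HBSS/10 mM HEPES/0.1% Tween-20 buffer; beta-galactosidase complementation read by luminescence after 1 h at ambient temperature. Dopamine 57 uM final (EC100) as control.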
Menin MLL FP FL = qHTS Assay for Inhibitors Targeting the Menin-MLL Interaction in MLL Related Leukemias: Competition With Fluorescein Labeled MLL-derived Peptide; 290,000 tested, under 10 active; Fluorescence polarization, fluorescein-MLL peptide displacement from menin; FP activity change, % at 61.4 µM; inconclusive = falling polarisation curve, or a change in total fluorescence; inactive = total fluorescence flat and polarisation flat or rising; no compound was filed as active; the % refers to the polarisation; negative = inhibition;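 note: % of control where 0% means no effect; inhibitors lower the polarisation; unlabelled MLL peptide was the positive control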
Sfp PPTase inh = qHTS Assay for Inhibitors of Bacillus subtilis Sfp phosphopantetheinyl transferase (PPTase); AID 1490, 2009; 4'-phosphopantetheinyl transferase ffp (Bacillus subtilis), Q9F4F7; 3.5% of 310,000 active; Potency, µM, for inactives: max response, negative = inhibition, most hits filed as inhibitors; Biochemical Sfp PPTase activity, qHTS; active = well fitted inhibition curve with a large enough effect; inconclusive = small, poorly fitted or top-dose-only effect, or another doubt; inactive = no such curve, though single readings can be large or run the other way;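 note: the enzyme is Sfp with the accession as filed and its product quenches rhodamine fluorescence; potency is the fitted concentration of half-maximal effect; 0% = enzyme reaction without inhibitor and -100% = no enzyme wells; top concentration of the series not given in the record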
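Sfp 15 nM + cpd, 15 min RT; start w/ rhodamine-CoA 5 uM, BHQ-2-YbbR 12.5 uM (final); 50 mM Hepes pH 7.6, 10 mM MgCl2, 0.01% NP-40, 0.01% BSA; read 525/598 nm at 0 and 30 min.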
An asterisk follows results filed as active; ? = inconclusive; . = no result given; & = joins results of further samples; ! = not confirmed by another sample; [ ] = dose if it differs, or a comment.

SMILES	ClpP mod	PINK1 expr mod	gsp antagonist	gsp agonist	D2 ag	Menin MLL FP FL	Sfp PPTase inh
Cc1cnc(NC(=O)CCCSc2nc3ccccc3s2)s1	-0.3%	12.5%[38.3 µM]	10.8%	-3.4%	0.6	-2.1	20.0%
O=C(Nc1ccc(-n2ccnc2P(=O)(O)c2ccccc2)cc1)c1ccccc1Br	-0.7%	1.0%	2.8%	-0.1%	-0.9	6.4	-30.0%
c1ccc(-c2cc3c(NCC4COc5ccccc5O4)ncnc3s2)cc1 (stereo not drawn)	.	?	?	25.5%	0.2	7.4	-8.0%
CCCn1c(CCNC(=O)c2ccco2)nc2ccccc21	.	0.8%	2.9%	-0.9%	-2.9	-0.1	5.5%
CCCCN(CCCC)c1nc2ccccc2nc1NS(=O)(=O)c1ccc(NC(C)=O)cc1	37.1%	2.3%	6.8%	14.4%	-0.7	-1.0	?
CCSc1nnc(-c2cnn(-c3ccccc3)c2-n2cccc2)n1C	-2.5%	2.6%	5.1%	18.0%	-4.1	-1.5	-21.0%
O=C(CSc1nnc(-c2ccncc2)n1CC1CCCO1)Nc1ccccc1Cl (stereo not drawn)	-1.6%	-0.1%	2.6%	12.9%[15.4 µM]	-3.3	0.0	14.1%
CC1=C(C(=O)OCc2ccccc2)C(c2ccc(Cl)cc2)NC(=O)N1C (stereo not drawn)	-0.3%	1.4%	-13.5%	-24.0%	6.0	3.6	-3.9%
CCOC(=O)C1(Cc2ccc(OC)cc2)CCN(C(=O)C2CCCO2)CC1 (stereo not drawn)	.	0.8%	-5.5%	-7.7%[15.4 µM]	-3.3	1.4	10.1%
CCOC(=O)CSc1nnc(CNC(=O)c2ccc(S(=O)(=O)N3CCCCC3)cc2)n1C	0.5%	1.0%[38.3 µM]	0.1%	14.8%	0.1	5.8	13.1%
O=C(CCS(=O)(=O)Cc1ccccc1)N1CCN(Cc2ccccc2)CC1	0.1%	.	0.8%	?	-3.8	0.3	11.7%
Cc1ccccc1-c1nccc(NCc2cccs2)n1	.	-0.4%	.	.	.	-2.2	89.1µM*
CC12CCC(C(=O)NCc3ccccn3)(OC1=O)C2(C)C (stereo not drawn)	-0.6%	3.4%	4.8%	-7.6%	5.0	3.7	-26.0%
COc1ccc(CN/C=C2\CCCCC2=O)cc1	-0.4%	-4.7%[38.3 µM]	1.7%	-45.7%[inhibitor]	-0.1	1.7	11.5%
O=C(Nc1ccc(F)c(F)c1)C1CCN(S(=O)(=O)c2cccc3nonc23)CC1	-0.7%	6.8%	?	14.2%[15.4 µM]	-16.1	-0.4	3.5%
N/C(=N\OC(=O)C12CC3CC(CC(C3)C1)C2)c1ccncc1	0.0%	4.4%	4.6%	9.7%[15.4 µM]	13.0	-1.6	17.6%
Cn1c(=O)c2c(nc(N3CCOCC3)n2Cc2c(F)cccc2Cl)n(C)c1=O	-0.7%	6.7%[38.3 µM]	-11.0%	-54.4%[inhibitor]	0.0	-4.9	6.0%
Nc1n[nH]c(-c2ccccc2[N+](=O)[O-])n1	2.3%	-0.9%	4.0%	0.5%	0.5	5.8	13.7%
Cc1ccc2oc(-c3ccco3)nc2c1	11.2µM*!	-0.5%&0.0%	2.5%	21.5%	-0.2	0.4	2.5%
O=C(Cc1ccc(Cl)cc1)Nc1ccc2c(c1)C(=O)NC2=O	.	6.4%	9.7%	-12.9%[15.4 µM]	-0.6	0.7	3.4%
COCc1c(C(=O)OCC(=O)N2CCCC2=O)oc2ccccc12	-20.0%	0.6%	3.6%	-12.9%	-3.7	.	.
CC(=O)c1cccc(NC(=O)CC2SC(N3CCCCC3)=NC2=O)c1 (stereo not drawn)	-3.3%	-2.2%	6.3%	-9.3%	0.5	1.1	1.5%
Cc1ccc(Cl)c(OC(=O)C2CSC3(C)CCC(=O)N23)c1 (stereo not drawn)	1.6%	4.0%	10.5%	-6.1%	3.1	.	.
Cn1c(N=Nc2ccc(N3CCOCC3)cc2)[n+](C)c2ccccc21	-0.2%	?	?	-0.1%[15.4 µM]	-8.6	4.5	?
CCOC(=O)N1C(=O)[C@](c2ccc(Cl)cc2)(C(C)C)N1C(=O)OCC	-18.0%	-0.5%	11.7%	36.3%	-0.9	0.9	-4.7%
C[C@@H]1CCCCO[C@H](CN(C)C(=O)Nc2ccc(C(F)(F)F)cc2)[C@@H](C)CN([C@H](C)CO)C(=O)c2cc(NC(=O)c3ccncc3)ccc2O1	0.6%	5.3%	.	-34.3%	0.0	.	.
Cc1nccc(-c2cc(-c3ccc(Cl)cc3Cl)no2)n1	-0.1%	1.1%	-1.2%	0.7%[15.4 µM]	-3.2	-0.2	14.9%
Cc1ccc(S(=O)(=O)Nc2ccccc2NS(=O)(=O)c2ccc(C)cc2)cc1	0.3%	-1.1%	.	.	10.4	.	.
N#C/C(=C\N1CCOCC1)c1ccccc1	-0.9%	0.8%[38.3 µM]	11.4%	-17.9%	3.2	-2.3	8.3%
Cn1c(=O)[nH]c(=O)c2c1ncn2CCN1CCOCC1	-3.1%	-0.4%	6.7%	-0.4%	-1.2	-2.3	19.8%
CCn1c2c(c(=N)c3ccccc31)CCC2	-2.8%	-1.3%	6.4%	31.6%[15.4 µM]	-0.4	1.4	10.7%
COc1cccc(Oc2nccc(N(C)C)c2C#N)c1	.	12.8%	-4.7%	-18.7%	-4.3	0.4	15.7%
CCCCC1=CC2=CC(=O)C(C)(OC(=O)CC)C(=O)C2=CN1Cc1ccc2c(c1)OCO2 (stereo not drawn)	-4.6%	1.9%	1.2%	.	3.7	0.6[11.7 µM]	19.8%&-8.7%
COc1cccc(CNC(=O)C(Cc2ccccc2)n2cccc2)c1 (stereo not drawn)	.	-1.8%	-2.6%	14.1%[15.4 µM]	-0.4	2.2	7.0%
Cc1cc(C)c(NC(=O)CSc2ccc3nnc(CCNC(=O)c4ccccc4)n3n2)c(C)c1	-6.3%	7.0%	-0.4%	20.4%	5.3	2.3	0.6%
CC(C)(C)NC(=O)C1CC1(c1ccccc1)c1ccccc1 (stereo not drawn)	-0.7%	-0.6%	-11.2%	12.6%	1.0	-1.1	9.5%
COc1cccc(NC(=O)CSc2nc3ccccc3nc2N2CCOCC2)c1	-3.7%&-9.2%	2.9%&2.1%	-13.8%	19.1%	5.2	0.9	4.5%
CC(C)CCNC(=O)C(c1ccco1)N(Cc1cccs1)C(=O)Cn1nnc2ccccc21 (stereo not drawn)	1.7%	3.4%	-9.1%	0.0%	2.3	1.9	1.0%
CCOc1ccc(N2C(=O)/C(=C/c3ccco3)N(C)C2=S)cc1	1.1%	8.7%	0.8%	?	3.0	10.5	39.8µM*
CCOc1ccc(C(=S)N2CCCC2)cc1OCC	0.4%	0.2%	13.2%	-0.5%	0.9	0.3	56.2µM*
COc1cc(/C=N/NC(=O)Cc2ccccc2)ccc1Oc1ccc([N+](=O)[O-])cc1[N+](=O)[O-]	-2.1%	-0.7%	-14.8%	22.8%	-2.6	2.8	-3.2%
CC(=O)c1c(C)[nH]c(C(=O)NNC(=O)c2ccc(Br)cc2)c1C	-1.0%	0.4%	-14.0%	18.6%	13.7	.	.
c1coc(-c2nc(-c3ccncc3)no2)c1	0.9%	0.1%	13.4%	5.8%	-2.4	-2.2	17.8%
O=C(Nc1ccccn1)C1CCCN(c2ncnc3c2nc2n3CCCCC2)C1 (stereo not drawn)	.	0.0%	-5.6%	-2.9%	2.0	6.4	12.8%
Cc1cc(Cl)c(C)c(S(=O)(=O)N2CCN(CC(=O)N3CCOCC3)CC2)c1Cl	1.9%	-0.5%	-1.4%	24.2%	-3.5	.	.
CCCCCCCCCSc1n[nH]c(N)n1	-3.1%	-0.4%	14.5%	-0.1%	-1.6	-0.2	26.1%
COc1ccccc1NC(=O)C1CCCN(c2nc(C)cc(C)n2)C1 (stereo not drawn)	-27.6%	-0.7%	-12.0%	13.1%	-0.4	5.4	6.8%
CCOc1ccc(NC(=O)N2CCC(n3nnc4cc(C)ccc43)CC2)cc1	-1.3%	0.0%	-19.0%	-28.6%	0.0	7.6	12.4%
CCn1c(CNC(=O)C(C)(C)C)nc2ccccc21	-11.9%	3.5%	9.3%	?	-1.9	0.6	11.0%
COc1ccc(NC(C)=O)cc1NC(=O)CN1CCN(c2ccccn2)CC1	?	0.8%	8.5%	-37.1%	-1.5	4.1	32.5%
COc1ccccc1OCc1ccc(C(=O)NCCN(C)C)o1	0.3%	-2.4%	2.6%	0.2%	-2.0	0.3	-9.4%
O=c1c2[nH]c3ccc(F)cc3c2ncn1CCC1=CCCCC1	.	-0.1%	17.3%	-16.2%[15.4 µM]	-0.3	5.7	0.0%
CN(C)C(=O)C(=O)c1cccn1-c1ccccc1C#N	0.0%	1.2%	9.2%	-32.1%[inhibitor]	-0.8	-0.8	22.6%
O=c1c2c3n(c(=S)nc2[nH]n1-c1ccccc1)CCCCC3	-0.4%	0.6%[38.3 µM]	-9.7%	29.7%	-1.2	2.3	-11.2%
COC(=O)[C@@H]1C[C@@]2(O)[C@@H](O)[C@@H](O)[C@@H](O)C[C@H]2N1CC(c1ccccc1)c1ccccc1	-1.0%	-1.0%	7.5%	.	-4.5	2.5&-0.4	15.5%&19.2%
CCOc1ncccc1C(=O)Nc1ccc(C(=O)Nc2ccc(OC)cc2)cc1	3.1%	10.0%	7.8%	15.2%	5.2	.	.
O=C(NCCCN1CCC(Cc2ccccc2)CC1)c1ccc2nc(N3CCOCC3)sc2c1	-24.4%	0.8%	-3.3%	-13.8%	-6.2	0.0	-8.3%
